Assay outcomes from PubChem BioAssay.
CtBP-E1A inh – inhibitors of CtBP/E1A interaction | AlphaScreen GST-E1A/His-CtBP binding, 1536-well; active compounds read low; control for the full effect not named in the record | activity change, % (concentration not given with the values) | hit rate 0.49% among 340,000 | AID 651724; in the data active means activity change below about -65%; inconclusive means about -30% to -65%; inactive means above about -30%; further: on the % scale 0 is the no-effect control and ±100 the full control effect
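GST-E1A and His-tagged CtBP (125 nM each as 5X stock) were preincubated with pin-transferred compound for 2 h at 37 °C in the dark, then glutathione donor and nickel acceptor beads were added for 1 h before AlphaScreen reading.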
D2 PAM – human D2 receptor positive allosteric modulation | P14416 | DiscoveRx D2 beta-arrestin cells, luminescence, 90 min; 100% = 57 uM dopamine signal | potentiation, % (no concentration beside the values) | hit rate 0.23% among 360,000 | AID 624464; active = potentiation of 50% or more; inconclusive = 30% to 50%; inactive = 30% or less;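 further: compound concentration not given in the record; tested on top of an EC20 dose of dopamine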
Target sequence (P14416 whole entry, looked up): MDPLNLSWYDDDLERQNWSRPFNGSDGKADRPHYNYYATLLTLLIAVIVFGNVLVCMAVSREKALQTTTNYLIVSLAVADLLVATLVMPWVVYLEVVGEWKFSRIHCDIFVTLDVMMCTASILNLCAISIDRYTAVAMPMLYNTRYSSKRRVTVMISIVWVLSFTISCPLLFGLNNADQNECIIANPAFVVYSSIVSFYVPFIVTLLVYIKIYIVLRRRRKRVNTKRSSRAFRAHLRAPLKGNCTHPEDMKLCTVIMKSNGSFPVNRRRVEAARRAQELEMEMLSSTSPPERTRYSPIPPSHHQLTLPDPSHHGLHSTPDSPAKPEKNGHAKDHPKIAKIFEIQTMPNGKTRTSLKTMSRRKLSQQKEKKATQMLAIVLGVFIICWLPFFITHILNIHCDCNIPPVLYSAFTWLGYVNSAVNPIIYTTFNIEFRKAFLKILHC
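PathHunter beta-arrestin assay in DiscoveRx D2 cells. Compounds were added with an EC20 of dopamine (50 nM final) for 90 min at 37 deg C. Luminescence was read 1 h after detection reagent, with 57 uM dopamine as the EC100 control.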
TRPML1 inh – blocks the human TRPML1 channel | TRPML1-inducible cells, Ca2+ dye fluorescence, FDSS; active compounds read low; inhibition of EC80 agonist-evoked calcium signal | activity change, negative = inhibition, % (concentration not given with the values) | hit rate 0.02% among 390,000; in the data active means activity change below about -50%; inconclusive means about -30% to -50%; inactive means above about -30%;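 further: stimulus is agonist 54-4 at its EC80 concentration; on the % scale 0 is the no-effect control and ±100 the full control effect; the text of the record puts the active cut at -80%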
Target sequence (Q9GZU1 whole entry, looked up): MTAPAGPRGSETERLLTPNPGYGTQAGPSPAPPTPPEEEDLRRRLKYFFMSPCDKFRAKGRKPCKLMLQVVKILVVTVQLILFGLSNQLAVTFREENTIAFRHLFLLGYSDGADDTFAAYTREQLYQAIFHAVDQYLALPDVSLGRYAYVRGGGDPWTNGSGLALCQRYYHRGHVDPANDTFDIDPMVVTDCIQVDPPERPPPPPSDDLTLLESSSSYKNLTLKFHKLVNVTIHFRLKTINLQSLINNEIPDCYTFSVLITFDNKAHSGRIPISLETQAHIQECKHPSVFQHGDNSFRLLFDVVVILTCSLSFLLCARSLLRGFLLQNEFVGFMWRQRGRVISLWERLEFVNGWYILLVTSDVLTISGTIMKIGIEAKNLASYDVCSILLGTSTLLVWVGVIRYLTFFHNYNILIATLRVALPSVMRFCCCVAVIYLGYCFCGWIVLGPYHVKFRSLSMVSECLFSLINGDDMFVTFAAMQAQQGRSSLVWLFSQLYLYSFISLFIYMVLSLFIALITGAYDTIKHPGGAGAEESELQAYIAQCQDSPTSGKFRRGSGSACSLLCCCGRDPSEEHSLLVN
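TRPML1-DL cells, Tet-induced overnight (~16 h, 37 °C) at 1,500 cells/well, were loaded with Ca8 no-wash dye plus quencher for 45-90 min at room temperature. Compounds were pinned during FDSS kinetic reading; agonist 54-4 at EC80 (4 uM final) then added.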
TRPML1 agonist – human mucolipin-1 channel agonism; Q9GZU1; TRPML1-expressing cells, Ca2+ dye fluorescence, FDSS; host cell line not named in the record; reference of the full effect not given here; activation, % (concentration not given with the values); hit rate 0.12% among 410,000; AID 624414; in the data active = activation above about 50%; inconclusive = about 30% to 50%; inactive = below about 30%; further: 0% is about no effect; the text of the record puts the active cut at 80%
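Calcium fluorescence on an FDSS kinetic reader gave the read-out. Tet-induced TRPML1-DL cells were plated overnight, dye-loaded (Ca8 with quencher, 45-90 min, room temperature, dark), then read 110 s after compound addition, and again 110 s after 4uM final 54-4 (EC80).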
Six1-Eya2 blk – blocks human Six1 binding to Eya2; AlphaScreen GST-Six1/His-Eya2 binding, biochemical; active compounds read low; control for the full effect not named in the record; activity change, % (test concentration not listed); hit rate 0.56% among 360,000; in the data active = activity change below about -65%; inconclusive = about -30% to -65%; inactive = above about -30%; further: on the % scale 0 is the no-effect control and ±100 the full control effect
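Homogeneous AlphaScreen proximity assay pairing GST-Six1 with His-tagged Eya2 (added as 5X mix: 250 nM and 500 nM) in 50 mM Tris pH 8.0, 300 mM NaCl, 1 mM TCEP. Glutathione donor and nickel acceptor beads; 1 h, 37 °C, dark.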
TRPV1 PAM – human TRPV1 potentiation; TRPV1-expressing cells, Fluo-8 calcium influx, capsaicin EC20 potentiation; host cell line not named in the record; control for the full effect not named in the record; potentiation, % at 8.33 µM; hit rate 0.02% among 320,000; AID 540277; Q8NER1; active means potentiation above 80%; inconclusive means 30% to 80%; inactive means below 30%; further: 0% is about no effect
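Cells expressing TRPV1 were dye-loaded with Fluo-8 and read kinetically: 10 s baseline, 3 min after compound (agonist portion), then 2 min after EC20 capsaicin (allosteric enhancer portion). Calcium-bound dye fluorescence at 480/520 nm.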
Starred values were filed as active, the others as inactive; ? = inconclusive; · = not tested or not shown; & = joins results of further samples.

Fields: CtBP-E1A inh	D2 PAM	TRPML1 inh	TRPML1 agonist	Six1-Eya2 blk	TRPV1 PAM
1) Cc1ccc(S(=O)(=O)N[C@@H](Cc2ccccc2)C(=O)N2CCC(C(=O)N[C@@H](CC(C)C)C(=O)O)CC2)cc1
 : 11	-4	11	0.7	2	11
2) COc1cccc(N/C(SC)=C(/C#N)C(=O)NCc2cccs2)c1
 : 0	5	0	3.2	-6	0
3) CCOC(=O)c1c(NC(=O)Cn2cnc3scc(-c4ccc(C)cc4)c3c2=O)sc(C)c1C
 : -17	-5	4	0.7	0	5
4) Cc1ccccc1NS(=O)(=O)c1cc(C(=O)N2CCc3ccccc3C2)ccc1C
 : -21	-13	23	1.4	-6	8
5) CN(C)S(=O)(=O)c1ccc(Cl)c(C(=O)NCCNC(=O)c2cc(S(=O)(=O)N(C)C)ccc2Cl)c1
 : ·	-11	-14	1.3	-12	5
6) CC(=O)Nc1ccc(-c2ccnc3c2CC(C)(C(=O)Nc2ccc(F)c(Cl)c2)O3)cc1 (centres undefined)
 : -22	-9	-9	0.6	-8	·
7) CC1(C(=O)OCC(=O)Nc2nnc(-c3ccccc3)o2)CC1(Cl)Cl (centres undefined)
 : 5	-22	7	-0.4	-13	-5
8) O=C(OCn1ncc(Cl)c(Cl)c1=O)c1cccc(C(F)(F)F)c1
 : -14	-19	-4	1.2	-24	-2
9) COc1ccc(-c2nc3n(n2)C(c2ccccc2)C2=C(CCCC2=O)N3)cc1OC (centres undefined)
 : -10	-11	6	-0.3	-3	4
10) CC1(C(=O)NS(=O)(=O)C2CC2)CCN(C(=O)CSc2ccccc2)C1 (centres undefined)
 : 5	-13	·	0.3	5	·
11) Cc1oc2ccc(OC(=O)c3cccs3)cc2c1C(=O)OC(C)C
 : 45	4	-19	2.8	51	-3
12) CCc1ccc(C(O)(C(C)C)C(CN2CCOCC2)c2ccccc2)cc1 (centres undefined)
 : 1	4	·	·	2	-16
13) CSCC[C@H](NC(=O)c1ccc(Br)o1)c1nnc2ccccn12
 : 5	-1	9	0.5	0	-22
14) COc1ccc(/C=N/NC(=O)c2snnc2C)c(OC)c1OC
 : -1	-1	13	-0.2	9	3
15) O=C(COC(=O)COc1ccc(Cl)cc1)Nc1ccc2c(c1)OCCO2
 : 8	2	-2	1.8	3	-15
16) Cc1cc(C)c(NC(=O)c2cc(S(=O)(=O)N3CCOCC3)ccc2F)c(C)c1
 : 2	-2	-16	0.6	4	-13
17) COc1ccc(-c2csc3ncnc(N4CCN(c5cccc(OC)c5)CC4)c23)cc1
 : -3	-5	-10	0.3	-11	-44
18) c1ccc(-n2c(SCC3CCCCO3)nnc2-c2cnccn2)cc1 (centres undefined)
 : -1	-8	-6	0.2	0	20
19) O=C1NCCN(Cc2ccc(F)cc2)C1CC(=O)N1CC=C(c2ccccc2)CC1 (centres undefined)
 : -8	0	21	1.3	0	-1
20) O=C(Nc1ccccc1OC(F)F)C1CCCN1C(=O)c1cccs1 (centres undefined)
 : -10	-8	-3	0.4	0	2
21) CCOC(=O)C1=C(C)N(c2ccccc2)C(=O)/C1=C\c1ccco1
 : -3	-15	-8	2.6	-3	-16
22) CCOC(=O)c1cn(Cc2cccc(Cl)c2)nn1
 : 10	11	1	1.6	7	-13
23) CC1(C(=O)NS(=O)(=O)c2cccc(OC(F)F)c2)CCN1C(=O)CC(c1ccccc1)c1ccccc1 (centres undefined)
 : 2	6	·	-0.8	-2	·
24) CC1(C)Cc2c(sc3nc(SCC(=O)N4CCOCC4)nc(N)c23)CO1
 : 1	4	-14	0.3	-4	?
25) CCC(=O)Nc1nnc(SCC(=O)Nc2ccc(F)cc2)s1
 : 6	-2	46	3.0	9	-1
26) Cc1ccc(NC(=O)CSCc2c(C)noc2C)cc1C
 : -11	8	3	0.0	-12	?
27) O=C(Nc1ccccc1)c1cc(C2CCCCN2S(=O)(=O)c2ccc(F)cc2F)on1 (centres undefined)
 : -5	-14	·	0.1	-10	·
28) O=C(O)c1ccccc1C(=O)Nc1cc(C(F)(F)F)ccc1N1CCCC1
 : -8	1	15	2.0	-7	-20
29) CCCn1cc(S(=O)(=O)c2ccccc2)c(=O)c2cc(OC)c(OC)cc21
 : 0	-7	-3	0.1	-5	-1
30) COC(=O)c1scc(S(=O)(=O)C(C)C)c1N/N=C(\C#N)C(=O)c1ccc(Cl)cc1
 : ·	-32	-13	-0.6	-5	11
31) CCN(CC)CC#CC(C)OCOCC#CCOC (centres undefined)
 : 4	-10	-5	-0.1	3	-1
32) CCCc1ccc(OCC(O)CN2CCN(c3ccccc3)CC2)cc1 (centres undefined)
 : -13&-15	-7&-21	-3&-8	-0.3&0.5	-16&-13	3
33) Cc1ccc(Cn2ccc(NC(=O)c3cc(-c4ccc(Br)cc4)on3)n2)cc1
 : 2	-16	-4	0.5	1	1
34) Cc1c(O)ccc2c3c(c(=O)oc12)CCC(C)C3 (centres undefined)
 : -18	8	-24	2.3	-25	11
35) C=CCc1cccc2cc(C(=O)NCc3ccc(C(=O)OCC)o3)c(=O)oc12
 : 12	-12	3	1.9	12	16
36) O=C(CSc1nnc(CNC(=O)c2c(F)cccc2F)o1)NCC1CCCO1 (centres undefined)
 : 9	6	11	-0.3	2	-4
37) O=C(NC1Cc2ccccc2C1)c1cc(COc2cccc(C(F)(F)F)c2)on1
 : 7	-24	20	4.3	10	4
38) COc1ccccc1NC(=O)C/C(C)=N/NC(=O)c1ccccn1
 : -26	-1	0	-0.6	?	-17
39) CCOc1ccc(NC(=O)COC(=O)COc2cccc3c2OC(C)(C)C3)cc1
 : 6	-10	-2	-0.5	1	6
40) Clc1ccc(-c2ccnc(Oc3cc(Cl)ccc3Cl)n2)cc1
 : 11	12	11	1.7	13	-12
41) O=[N+]([O-])c1cc([N+](=O)[O-])c(Oc2cc(F)cc(F)c2)cc1NN1CCCCC1
 : -4	-8	27	0.4	-11	?
42) COC(=O)c1ccc(CN2CCN(CC=C(C)C)C(CCO)C2)cc1 (centres undefined)
 : 8	-13	-2	1.2	0	7
43) Fc1cccc(CSc2ncnc3c2oc2ccccc23)c1
 : 9	-6	3	1.2	7	-10
44) COCc1cc(C(C)=O)ccc1OC
 : 4	-8	29	3.7	2	3
45) CC(NC(=O)CN(C)S(=O)(=O)c1ccc(F)cc1)C1CC2CCC1C2 (centres undefined)
 : 0	-4	-4	0.2	0	-22
46) CCCCC(=O)Nc1ccc(NC(=S)NC(=O)CC)cc1OC
 : -4	?	-1	0.8	-4	6
47) Cc1ccc(C(=O)NC(C)c2nnc(SCC(=O)NC3CCCC3)n2C)cc1 (centres undefined)
 : -4	-2	4	0.4	2	2
48) CN(C)CCN(Cc1ccccc1)S(=O)(=O)c1ccc(-c2ccc(=O)[nH]n2)s1
 : -7	-36	-3	-0.4	-3	7
49) CC1CCN(C(=O)c2[nH]cnc2C(=O)N[C@@H](C)C(=O)OCc2ccccc2)CC1
 : 11	-5	-8	-1.0	-20	26
50) COc1cccc(CN(C)C(=O)c2csc3c2CCCC3)c1OC
 : -6	1	11	0.6	3	-6
51) CCC1(C)Cc2c(sc3nnn(Cc4ccccc4Cl)c(=O)c23)CO1 (centres undefined)
 : 9	-15	-2	1.8	9	-6
52) NC(=O)N/N=C/c1c(Sc2nnnn2-c2ccccc2)nc2ccccn2c1=O
 : ·	-16	-9	-0.6	-1	·
53) CC(C)(C)Nc1nc(Cl)nc(Nc2ccccc2)n1
 : 3	-19	-16	0.5	-4	-39
54) O=S(=O)(NCc1ccccn1)c1ccc2ccccc2c1
 : -6	-5	19	2.5	-7	2
55) O=C(CSc1nc(-c2ccco2)cc(C(F)(F)F)n1)N1CCCc2ccccc21
 : 9	-3	-5	-0.8	2	0
56) O=Cc1c(N2CCCCC2)nc2ccccn2c1=O
 : 6	7	-13	-0.4	-13	12
57) CCOc1ncccc1C(=O)Nc1cc2c(cc1Br)OCCO2
 : ·	-23	-5	-0.3	7	·
58) Cc1ccc(C)n1NC(=O)c1ccccc1Cl
 : -5	-35	-5	0.3	-24	-1
59) Cn1c(N)c(S(=O)(=O)NCc2ccccc2)c(=O)n(C)c1=O
 : 0	6	-3	0.4	42	·
60) N#C/C(=C\c1ccccc1)c1ccccn1
 : 0	-9	8	2.3	2	-13

3 consecutive records already listed, quoted:
Fields: CtBP-E1A inh	D2 PAM	TRPML1 inh	TRPML1 agonist	Six1-Eya2 blk	TRPV1 PAM
1) Cc1ccc(S(=O)(=O)N[C@@H](Cc2ccccc2)C(=O)N2CCC(C(=O)N[C@@H](CC(C)C)C(=O)O)CC2)cc1
 : 11	-4	11	0.7	2	11
2) COc1cccc(N/C(SC)=C(/C#N)C(=O)NCc2cccs2)c1
 : 0	5	0	3.2	-6	0
3) CCOC(=O)c1c(NC(=O)Cn2cnc3scc(-c4ccc(C)cc4)c3c2=O)sc(C)c1C
 : -17	-5	4	0.7	0	5

Following part:
Fields: CtBP-E1A inh	D2 PAM	TRPML1 inh	TRPML1 agonist	Six1-Eya2 blk	TRPV1 PAM
61) CC(C)(Oc1ccc(Cl)cc1)C(=O)OCn1nnc2ccccc2c1=O
 : 12	2	11	0.4	-3	27
62) CN(C)/N=C/c1cc(Cl)cc([N+](=O)[O-])c1O
 : -24	-24	-10	-0.1	-17	13
63) COc1ccc2c(c1OC)C(=O)N1N=C(c3ccccc3)CC21 (centres undefined)
 : 2	-5	5	-0.3	5	3
64) Cc1ccc(NC(=O)c2sc3ncnc(N4CCN(c5ccccn5)CC4)c3c2C)c(C)c1
 : -21	-3	37	0.4	-8	22
65) CCOC(=O)c1ccccc1NC(=O)COC
 : -5	-8	6	-0.6	-16	20
66) COc1ccc(OC)c(/C=N/NC(=O)C(=O)NCc2cccnc2)c1
 : -9	-7	-3	-0.7	14	-16
67) O=C(CN1C(=O)NC(CCc2ccccc2)C1=O)NC1CC1 (centres undefined)
 : 11	-6	-2	-0.3	10	11
68) O=C(Nc1ccc(Br)cc1)N1CCc2ccccc2C1
 : 14	-18	-9	0.0	9	-4
69) Cc1cc(N2CCC(C)CC2)c(F)cc1[N+](=O)[O-]
 : 4	-3	-6	1.5	-2	-16
70) CN1CCN(C2CN(Cc3cn(Cc4ccccc4C(F)(F)F)nn3)S(=O)(=O)C2)CC1 (centres undefined)
 : 0	-7	-6	2.0	12	·
